# Biofilm kill mix = mixtures killing C. albicans biofilm. C. albicans biofilm persisters + clotrimazole, fluorescence viability; primary screen in compound mixtures of four per well. inhibition, % at 7.6 µM. hit rate 0.02% among 120,000. AID 1242;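 active means inhibition above 30.3% in the primary screen of four-compound pools, then above 30% when the compound was retested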;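 further: compounds exposed to preformed 24 h biofilms for 48 h; the number belongs to the whole pool; some results filed as inactive read as strong as hits; inactives centre near 12; 0% = biofilm with clotrimazole alone and 100% = kill control; retested singly at about 60 µM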
#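 Probe or stimulus – Clotrimazole 50 µg/mL co-treatment · System – C. albicans biofilms · Schedule – 24 h biofilm formation, then 48 h compound exposure, 37 °C · Evaluation – percent inhibition of biofilm viability · Technique – 2-h Alamar Blue fluorescence, 535/590 nm excitation/emission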
# Starred values were filed as active, the others as inactive. An excerpt; the hit share may differ from the screen's.
SMILES,Biofilm kill mix
O=C(CSc1ccsc1[N+](=O)[O-])NCc1ccco1,-5
CCN1c2ccccc2N(C)C1(C)c1ccccc1 (stereo unspecified),13
COC(=O)c1cccc(C23CC4(C2)[C@H](CN(C)[C@@H]4c2ccccc2)C3c2ccccc2)c1 (stereo partly specified),11
Cc1cc(NC(=O)CCC(=O)N(Cc2ccco2)C(C(=O)NC2CCCCC2)c2cccs2)no1 (stereo unspecified),20
CC1CN(C(=O)c2ccc(COc3ccccc3Br)o2)CC(C)O1 (stereo unspecified),3
CC(O/N=C\c1ccccc1O)C(=O)Nc1ccccc1C(=O)N1CCOCC1 (stereo unspecified),19
c1cc2c3c(cccc3c1)C(N1CCOCC1)=N2,17
CCc1ccc(NC(=O)C(C)OC(=O)/C=C/c2cccc([N+](=O)[O-])c2)cc1 (stereo unspecified),17
COc1ccc(CN2CCNC(=O)C2CC(=O)N2CCc3ccccc3C2)c(OC)c1 (stereo unspecified),-8
CCNC(=O)/C(=C\C=C\c1ccccc1)NC(=O)c1ccc(Br)o1,15
COc1cccc(CN(C)C(=S)Nc2ccc(C)c(C)c2)c1,15
O=C1NC(c2ccccc2)=NC1(NS(=O)(=O)c1ccc(Cl)cc1)C(F)(F)F (stereo unspecified),4
CCCCCCCCCCS(=O)(=O)N/N=C/c1ccccc1OC,4
CCOC(=O)NC(NC(=S)Nc1ccc(OC)cc1)C(Cl)(Cl)Cl (stereo unspecified),16
Nc1nonc1C(=O)NCCNc1ccc([N+](=O)[O-])cn1,30
O=c1cc(/C=C/c2c(F)cccc2Cl)[nH]c2ccccc12,16
COc1ccc([C@H]2C=C3CN(C(=O)OC(C)(C)C)S(=O)(=O)[C@H]3C[C@H]2OC(=O)c2ccc(C(F)(F)F)cc2)cc1,13
COc1ccc(N2C(=O)N(Cc3ccccc3F)c3ccccc3S2(=O)=O)cc1,4
CC(C)(C)c1ccc(C(=O)Nc2ccc(CN3CCS(=O)(=O)CC3)cc2)cc1,19
CCOc1ccccc1Nc1ccc(C(=O)O)cc1[N+](=O)[O-],11
Cc1ccc(C(=O)NC(C)c2ccc3c(c2)OCO3)s1 (stereo unspecified),12
O=C1c2cc([N+](=O)[O-])cc3cc([N+](=O)[O-])cc(c23)C(=O)N1c1ccccn1,23
Cc1cccc(C)c1Nc1c(-c2ccsc2)nc2ncccn12,15
OCC#Cc1ncc(C(F)(F)F)cc1Cl,8
CCCN1C(=O)c2cc(C(=O)Nc3ccccc3OC)ccc2C1Nc1ccccc1OC (stereo unspecified),5
# New compounds follow:
SMILES,Biofilm kill mix
Cc1cc(C)n(-c2ccc(C(=O)OCC(=O)NC(c3ccccc3)c3ccccc3)cc2)n1,19
Cc1cc2cc(CNC(=O)Cc3ccc([N+](=O)[O-])cc3)ccc2n1C,10
CCCc1cc(NCCCn2ccnc2)n2nc(C)c(-c3ccccc3)c2n1,18
Cn1c2c(c(=O)n3ncnc13)CCCC2,14
CC(C)(C)C(=O)NNC(=O)c1cc(C(C)(C)C)nn1Cc1ccccc1,5
COc1ccc(-n2c(C)cc(C(=O)COC(=O)c3cc(NC(=O)c4cccs4)c(OC)c(OC)c3)c2C)cc1,16
Cc1cc(C)c2c(=O)n(CC(=O)Nc3cccc(Cl)c3C)sc2n1,20
COc1ccc(-c2nnc(NC(=O)CSc3ccc(C)cc3)s2)cc1OC,5
CNC(=O)C(=O)N/N=C/c1ccc(Br)cc1,15
CC1(OC(=O)C2CCCC2)C(=O)C=C2C=C(c3ccsc3)N(Cc3ccc4c(c3)OCO4)C=C2C1=O (stereo unspecified),6
COc1ccc2c(c1OC)C(=O)N(c1ccc(C)cc1)C2=O,9
O=C(NCc1n[nH]c(=S)n1-c1ccccc1)c1ccc(S(=O)(=O)N2CCCCC2)cc1,6
O=C(c1cc2ccccc2oc1=O)N(Cc1ccc(F)cc1)C1CCS(=O)(=O)C1 (stereo unspecified),26
CCn1cc(C(=O)O)c(=O)c2cc(F)c(N3CCN(C(=S)NC(=O)c4ccccc4F)CC3)cc21,3
Cc1ccc(-n2nnnc2CN2CCCCC2)cc1,12
CCN(CC)c1c([N+](=O)[O-])c(=O)sc2ccccc12,-9
C#CCSc1n[nH]c(-c2ccco2)n1,17
CN(C(=O)COC(=O)c1ccc(=O)n(Cc2ccccc2)n1)c1ccccc1,14
Cn1c(SCC(=O)N2CCN(C(=O)c3ccco3)CC2)nnc1-c1ccc(NS(C)(=O)=O)cc1,5
CCOC(=O)c1nc(NCc2cccc(OC)c2)c2ccccc2n1,24
Clc1ccc(/C=C/c2ncc3ccccn23)cc1,7
O=C(COC(=O)c1ccc(S(=O)(=O)N2CCCC2)cc1)Nc1ccc(F)cc1F,19
CCOC(=O)c1csc(N)c1-c1ccc([N+](=O)[O-])cc1,22
Fc1cccc(Cc2noc(CN3CCCCC3CCc3ccccn3)n2)c1 (stereo unspecified),-14
COc1ccc(CC2(CO)CCN(CC3=Cc4cc(Cl)ccc4OC3)CC2)cc1,0

# A run of entries taken from the entries so far, as a working copy:
SMILES,Biofilm kill mix
Cn1c2c(c(=O)n3ncnc13)CCCC2,14
CC(C)(C)C(=O)NNC(=O)c1cc(C(C)(C)C)nn1Cc1ccccc1,5

# The listing continues:
SMILES,Biofilm kill mix
CCO[C@@H]1OC(C(=O)N2CCN(Cc3ccccc3)CC2)=C[C@H](c2cn(C(C)=O)c3ccccc23)[C@H]1CCCO,19
C/C(=N\NC(=S)NCc1ccccc1)c1ccc(Br)cc1,8
COc1ccc(O)c(C2(O)C(=O)c3ccccc3C2=O)c1,2
CN(Cc1ccccc1)S(=O)(=O)c1ccc(N2CCOCC2)nc1,26
O=C(COC(=O)c1cccc(F)c1)NC1CC1,5
O=C(CCCCCCN1C(=O)c2ccccc2C1=O)NC1CCCCC1,4
CC1CCc2nc(NC(=O)c3cc(C(C)(C)C)nn3C)sc2C1 (stereo unspecified),10
CCOC(=O)CCC(NC(=O)CCCCCCCC(=O)NC(CCC(=O)OCC)C(=O)OCC)C(=O)OCC (stereo unspecified),16
CC(C)(C)NC(=O)CSc1nnc(Cc2ccccc2)n1CC1CCCO1 (stereo unspecified),16
COc1ccc(NC(=O)N2CCN(C(=O)Nc3ccc(OC)cc3)CC2)cc1,11
CCN(CC)CCCC(C)NC(=O)c1cc(=O)c2ccccc2o1 (stereo unspecified),12
CCNC(=O)COC(=O)c1cc(S(=O)(=O)N2CCCc3ccccc32)ccc1Cl,9
CCOC(=O)NC(=O)CSc1ccc2ccccc2n1,-13
CN(C)S(=O)(=O)c1cccc(NC(=O)CN2C(=O)C3C4C=CC(C4)C3C2=O)c1 (stereo unspecified),13
Cc1nc(-c2cccc(NC(=O)Cc3ccccc3)c2)cs1,14
COC(=O)c1sccc1NC(=O)c1cc(OC)cc(OC)c1,11
COc1cccc(C(=O)OCC(=O)NC(=O)NC2CCCC2)c1O,15
Cc1ccc(NC(=O)CN2C(=O)CN(C)C2=O)cc1S(=O)(=O)N1CCCCC1,20
CC1CCCCC1NC(=O)CO/N=C/c1ccccc1OC(F)F (stereo unspecified),15
O=C(O)CCCC(=O)Nc1ccccc1C(=O)N1CCOCC1,-5
COC(=O)C1=C(C)NC(C)=C(C(=O)OC)C1C1CC=CCC1 (stereo unspecified),11
COc1ccc(-c2ccc([C@H]3[C@@H]4C=CCC[C@@]4(C)C(=O)N3Cc3ccccc3)c(F)c2)cc1,11
O=C(CO/N=C/c1cccc([N+](=O)[O-])c1)NC1CCCCC1,19
CCn1c(COc2ccccc2)nnc1SCC(=O)NCc1ccco1,10
CCCCC(=O)Nc1cc(Cl)ccc1C(=O)O,1

# An excerpt from further up, as a working copy:
SMILES,Biofilm kill mix
COc1ccc(NC(=O)N2CCN(C(=O)Nc3ccc(OC)cc3)CC2)cc1,11
CCN(CC)CCCC(C)NC(=O)c1cc(=O)c2ccccc2o1 (stereo unspecified),12
CCNC(=O)COC(=O)c1cc(S(=O)(=O)N2CCCc3ccccc32)ccc1Cl,9
CCOC(=O)NC(=O)CSc1ccc2ccccc2n1,-13
CN(C)S(=O)(=O)c1cccc(NC(=O)CN2C(=O)C3C4C=CC(C4)C3C2=O)c1 (stereo unspecified),13
Cc1nc(-c2cccc(NC(=O)Cc3ccccc3)c2)cs1,14
COC(=O)c1sccc1NC(=O)c1cc(OC)cc(OC)c1,11
COc1cccc(C(=O)OCC(=O)NC(=O)NC2CCCC2)c1O,15
Cc1ccc(NC(=O)CN2C(=O)CN(C)C2=O)cc1S(=O)(=O)N1CCCCC1,20
CC1CCCCC1NC(=O)CO/N=C/c1ccccc1OC(F)F (stereo unspecified),15
O=C(O)CCCC(=O)Nc1ccccc1C(=O)N1CCOCC1,-5
COC(=O)C1=C(C)NC(C)=C(C(=O)OC)C1C1CC=CCC1 (stereo unspecified),11
COc1ccc(-c2ccc([C@H]3[C@@H]4C=CCC[C@@]4(C)C(=O)N3Cc3ccccc3)c(F)c2)cc1,11
O=C(CO/N=C/c1cccc([N+](=O)[O-])c1)NC1CCCCC1,19
CCn1c(COc2ccccc2)nnc1SCC(=O)NCc1ccco1,10
CCCCC(=O)Nc1cc(Cl)ccc1C(=O)O,1

# (cont.)
SMILES,Biofilm kill mix
C/C(=N\NC(=O)COc1ccccc1-c1ccccc1)c1ccccn1,2
CNC(=S)Nc1cccc(C(=O)O)c1,10
C=CCn1c(Oc2cccc(C)c2)nc2c1c(=O)n(C)c(=O)n2C,15
C/C=C(/C)C(=O)Nc1cccc(C2=NOC3(C2)C[C@@H](C(N)=O)N(C(=O)C2(C)CC2)C3)c1 (stereo partly specified),7
O=C(COC(=O)/C=C/c1cccc([N+](=O)[O-])c1)NCC1CCCO1 (stereo unspecified),6
CCn1c(NC(=O)C(C)C)c(-c2cccs2)c(=O)c2ccccc21,8
O=C(O)CC(SCC(=O)Nc1ccccc1)C(=O)O (stereo unspecified),-6
CN(C)N1C(=O)CC(NNC(=O)c2ccncc2)C1=O (stereo unspecified),9
CCOC(=O)c1sc2nc(SCC(=O)NCc3ccco3)n(Cc3ccccc3)c(=O)c2c1C,30
O=C(C1=NN[C@@H]2C(=O)N(c3ccccc3C(F)(F)F)C(=O)[C@H]12)c1cnccn1,25
Cc1cccc(N2CCN(C(c3ccc(N(C)C)cc3)c3nnnn3C(C)(C)C)CC2)c1C (stereo unspecified),18
O=C1CSC(c2ccc(F)cc2)N1c1nc2ccccc2s1 (stereo unspecified),13
CCc1ccc(NC(=S)NCC2CCCN2CC)cc1 (stereo unspecified),-12
CCOc1ccc(-c2cc(C(=O)NN)[nH]n2)cc1,7
CCn1cc(C(=O)NCC(C)C)c(=O)c2cc(F)c(N3CCN(C)CC3)cc21,18
COC(=O)C(C(=O)OC)c1ccc(NC(=O)c2cccc(Cl)c2)cc1,9
CCOC(=O)C1(CC)NC(c2cccc(F)c2)C2C(=O)N(CC)C(=O)C21 (stereo unspecified),-4
COc1ccc(CC(=O)NNc2ncnc3c2cnn3C)cc1OC,13
O=C1CC(c2ccccc2)CC(O)=C1C=Nc1ccc(O)cc1 (stereo unspecified),14
Nc1c(Cl)cnc(C(Cl)(Cl)Cl)c1Cl,24
Cc1ccc(CNC(=O)CCCC(=O)Nc2cc(C)on2)cc1,18
CCOC(=O)Cn1c(=O)oc2cc(S(=O)(=O)N(C)c3cccc(C)c3)ccc21,23
COc1ccc(NC(=O)COc2nc3ccccc3nc2N2CCOCC2)c(OC)c1,4
O=C1N/C(=C/c2ccc(N3CCOCC3)o2)C(=O)N1c1cccc(Cl)c1,15
CC(NC(=O)CC1SC(N)=NC1=O)c1ccccc1 (stereo unspecified),17
# Going on with the list:
SMILES,Biofilm kill mix
CCOC(=O)c1cn(CC(=O)Nc2cccc(Cl)c2)nn1,16
O=C(NC1Cc2ccccc2C1)c1cc(COc2ccc(F)cc2Cl)on1,9
Cc1nn(-c2ccccc2)c(C)c1CN,13
c1ccc(-c2ccccc2OCCCCN2CCCCCC2)cc1,15
CCOC(=O)N1CCN(CCC(=O)Nc2cc(C)ccc2OC)CC1,55
COC(=O)C1C(=O)C=C(Nc2ccc(F)cc2)CC1c1ccc(OC)cc1 (stereo unspecified),16
C/C(=N/NC(=O)CNC(=O)c1ccccc1)c1ccc(C)cc1,19
Cc1cccc(NC(=S)NC(=O)CC2CC(C)(C)OC2=O)c1 (stereo unspecified),11
CN(C(=O)CSc1nc2cc([N+](=O)[O-])ccc2n1-c1ccc(F)cc1)C1CCS(=O)(=O)C1 (stereo unspecified),9
COc1ccc(CC(=O)Nc2ccc(C(C)=O)cc2)cc1,13
Cc1sc2ccc3sccc3c2[n+]1C,27
O=C(c1ccc(N2C(=O)C3C4c5ccccc5C(c5ccccc54)C3C2=O)cc1)N1CCOCC1 (stereo unspecified),9
C(=N\N1CCN(Cc2ccccc2)CC1)/c1ccc(-c2ccccc2)cc1,-3
CC1CCN(C2CCN(C(=O)c3ccccc3F)CC2)CC1,22
Cc1ccc(Nc2nnc(C)c(=O)[nH]2)cc1,14
Cc1cc(C)n(C(=O)c2ccc(Cn3nc(C)c(Br)c3C)o2)n1,10
COc1ccc(S(=O)(=O)N2CCCCC2)cc1NC(=O)Cc1c[nH]c2ccccc12,13
Cc1nn(-c2ccccc2)c(C)c1/C=C/C(=O)OCC(=O)Nc1ncc(Cl)cc1Cl,7
CC1(C)CC(=O)C(C=Nc2cc(C(=O)c3ccccc3)ccc2N)=C(O)C1,9
O=[N+]([O-])c1cc(C(F)(F)F)ccc1N1CCCC(O)C1 (stereo unspecified),6
O=C(Cc1ccccc1)NC(c1ccco1)c1c(O)ccc2ccccc12 (stereo unspecified),2
COc1cc(-n2c(=O)c3ccccc3n(Cc3cccc(C)c3)c2=O)cc(OC)c1OC,8
Cc1ccccc1NC(=S)N(Cc1ccccn1)Cc1ccccc1Cl,11
COc1ccc(-c2csc(Nc3ccccc3)[n+]2Cc2ccccc2)cc1,9
COc1cccc(C(=O)O/N=C(\C)c2cnccn2)c1,8

# From PubChem
